# Screening data: PubChem, Broad Institute
# rRNA inh HTS = reduced GFP signal of wild-type E. coli, primary screen, bacterial rRNA inhibitor project, GFP/RFP fluorescence, OD600, single point | GFP signal change (wild-type ribosome), % (test concentration not listed) | hit rate 1.6% among 350,000 | E. coli WT GFP vs humanized-ribosome RFP mutants, 24 h; active compounds read low; DMSO median 0, no signal -100;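 active means significant combined selectivity score with lowered wild-type GFP, culture density cut under 30%, mutant RFP and density less affected; inactive means any of these conditions unmet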; further: one replicate is shown; some compounds called inactive have numbers as strong as hits
# rRNA inh HTS OD600 = also measured in rRNA inh HTS; calls as there; OD600 change, %; measured here: OD600 growth;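 optical density of the mix in the first replicate; 0 = DMSO median and -100 = no signal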
# rRNA inh HTS RFP = second read-out of rRNA inh HTS, no call of its own (marks repeat the call); RFP signal change, %; measured here: RFP humanized mutant strains;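 first replicate; 0 = DMSO median and -100 = no signal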
# * marks the source's active call; other numbers are inactive results; & = joins results of further samples. Not all compounds are listed; count on the stated rates, not on these rows.
# Every second line gives: rRNA inh HTS | rRNA inh HTS OD600 | rRNA inh HTS RFP
> C[C@@H]1CN([C@@H](C)CO)C(=O)c2cccc(NS(=O)(=O)c3ccccc3)c2O[C@@H]1CN(C)Cc1ccc2c(c1)OCO2
    1 | 0 | -0.7
> C[C@@H]1CCCCO[C@@H](CN(C)C(=O)CCCN(C)C)[C@H](C)CN([C@@H](C)CO)C(=O)c2cc(NC(=O)Nc3ccc(F)cc3)ccc2O1
    2 | 9 | -0.1
> O=C(Nc1ccc2c(c1)[C@H]1C[C@@H](CC(=O)N3CCc4ccccc4C3)O[C@H](CO)[C@H]1O2)C1CCOCC1
    -1 | 3 | -3.2
> C[C@@H]1CN([C@H](C)CO)C(=O)c2cc(NC(=O)NC3CCCCC3)ccc2O[C@@H]1CN(C)S(=O)(=O)c1cccs1
    -4 | -9 | -3.2
> Cc1cc2oc(=O)cc(CN3CCCC3)c2cc1C
    2 | -2 | -6.0
> COP(=O)(OC)OC(C(=O)c1ccccc1)c1ccccc1 (stereo unspecified)
    15 | 13 | 1.2
> C[C@H]1CN([C@@H](C)CO)C(=O)Cc2cc(NC(=O)Cc3cn(C)c4ccccc34)ccc2O[C@H]1CN(C)Cc1ccc(Oc2ccccc2)cc1
    -1 | 0 | 7.2
> CCC(=O)N1C[C@H](C)[C@@H](OC)CN(C)C(=O)c2ccc(NS(C)(=O)=O)cc2OC[C@H]1C
    1 | 3 | -1.0
> CC1(C(=O)O)CCN1C(=O)c1cccc(C(F)(F)F)c1 (stereo unspecified)
    4 | 6 | 0.1
> CCCC#Cc1ccc2c(c1)[C@H]1[C@H](CCN1S(=O)(=O)c1ccc(F)cc1)[C@@H](CO)N2
    -4 | -6 | 5.6
> C[C@H](CO)N1C[C@H](C)[C@@H](CN(C)C(=O)Cc2ccccc2)Oc2ncc(C#Cc3ccccc3F)cc2C1=O
    -12 | -34 | 21
> COc1ccc(S(=O)(=O)N(C)C[C@H]2Oc3ccc(NC(=O)CCCN(C)C)cc3C(=O)N([C@@H](C)CO)C[C@@H]2C)cc1
    -2 | 2 | -2.6
> COc1ccc(S(=O)(=O)Nc2cccc3c2O[C@H](CN(C)S(=O)(=O)c2cccs2)[C@H](C)CN([C@@H](C)CO)C3=O)cc1
    -1 | -4 | 1.3
> CCS(=O)(=O)N1CCCCN2[C@H](CO)[C@H](c3ccc(-c4ccccc4C)cc3)[C@H]2C1
    4 | -28 | 1.7
> COc1ccccc1-c1ccc(C2[C@H]3CNC[C@@H]2N3S(=O)(=O)c2ccccc2)cc1 (stereo partly specified)
    -16&2 | -23&-8 | 0.4&-2.6
> C[C@@H]1CN([C@H](C)CO)C(=O)c2cccc(NS(C)(=O)=O)c2O[C@H]1CN(C)Cc1ccc(C(=O)Nc2ccccc2N)cc1
    0 | 6 | -0.9
> C[C@@H]1CN([C@@H](C)CO)C(=O)c2cc(-c3ccccc3F)cnc2O[C@H]1CN(C)C(=O)NC1CCCC1
    -5 | -1 | -0.7
> O=C(C[C@H]1CC[C@H]2[C@@H](COC[C@H](O)CN2Cc2nccs2)O1)NCc1ccccc1Cl
    2 | -6 | 0.6
> C[C@@H]1CN([C@@H](C)CO)C(=O)c2ccccc2-c2ccccc2CO[C@@H]1CN(C)C(=O)Oc1ccccc1
    -2 | -5 | -2.4
> Cc1cccc(NC(=O)c2nc[nH]c2C(=O)Nc2ccccc2F)c1
    2 | 8 | -4.0
> CC(C)NC[C@H]1[C@@H](c2ccc(-c3cccc(F)c3)cc2)[C@@H](CO)N1CC1CC1
    0 | -5 | 5.5
> CO[C@H]1CN(C)C(=O)c2cc(NC(=O)Nc3ccccc3)ccc2OC[C@@H](C)N(C(=O)Nc2c(C)noc2C)C[C@@H]1C
    -1 | -7 | 1.1
> C[C@@H]1CN([C@H](C)CO)C(=O)CCCn2nncc2CO[C@H]1CN(C)S(=O)(=O)c1ccccc1C#N
    2 | 2 | 2.2
> C[C@H]1CN([C@@H](C)CO)C(=O)c2cccc(NS(=O)(=O)c3ccc(Cl)cc3)c2O[C@@H]1CN(C)Cc1ccncc1
    2 | 2 | -0.3
> CO[C@H]1CN(C)C(=O)c2ccc(NS(C)(=O)=O)cc2OC[C@H](C)N(C(=O)C2CCC2)C[C@H]1C
    1 | 6 | 0.0
> C[C@@H]1CN([C@H](C)CO)C(=O)Cc2cc(NC(=O)Nc3ccc(F)cc3)ccc2O[C@@H]1CN(C)Cc1ccc(Oc2ccccc2)cc1
    8 | 8 | 1.1
> CO[C@@H]1CN(C)C(=O)c2cc(NC(=O)C3CCC3)ccc2OC[C@@H](C)N(Cc2cccnc2)C[C@@H]1C
    -1 | 2 | -3.4
> CCCC(=O)Nc1ccc2c(c1)C(=O)N(C)[C@H]1CC[C@H](CC(=O)NC3CCCC3)O[C@@H]1CO2
    3 | 4 | -1.9
> CCNC(=O)[C@H]1[C@H](CO)[C@H]2Cn3c(ccc(/C=C/c4ccccc4)c3=O)[C@@H]1N2C(=O)C1CCC1
    -5 | -7 | -0.7
> CO[C@@H]1CN(C)C(=O)c2ccc(NC(C)=O)cc2OC[C@@H](C)N(C(=O)Cc2cccnc2)C[C@@H]1C
    3 | 1 | 0.6
> COc1ccc(N(CC(=O)NCc2cccs2)S(=O)(=O)c2ccc(C(C)=O)cc2)cc1
    14 | 3 | 5.8
> COc1cccc(Nc2nc(C(N)Cc3ccc(C(F)(F)F)cc3)cs2)n1 (stereo unspecified)
    -61 | -82 | -24
> CCNC(=O)C1(C)CCN(Cc2cccc(C(F)(F)F)c2)C1 (stereo unspecified)
    9 | 8 | 1.2
> C[C@@H]1CCCCO[C@H](CN(C)C(=O)c2ccccc2)[C@H](C)CN([C@@H](C)CO)C(=O)c2cc(NC(=O)CCC(F)(F)F)ccc2O1
    -1 | -6 | -1.6
> COc1ccccc1NC(=O)COC(=O)c1c(NC(C)=O)sc(C)c1C
    5 | 17 | 0.1
> C[C@H](CO)N1C[C@H](C)[C@H](CN(C)C(=O)Oc2ccccc2)OCc2cn(nn2)CCCC1=O
    0 | -1 | -0.2
> O=C(NC1CCCC1)N1CCCCN2[C@@H](CO)[C@@H](c3ccc(-c4ccccc4)cc3)[C@@H]2C1
    -35 | -50 | 11
> CCCN1[C@@H]2Cn3c(ccc(-c4cccc(F)c4)c3=O)[C@H]1[C@@H](C(=O)NCC1CC1)[C@@H]2CO
    -1 | 8 | -2.9
> CCOC(=O)C1=C[C@@H](C(C)C)N(S(=O)(=O)c2ccc(C)cc2)[C@H]1c1ccccc1F
    23 | 20 | 3.4
> O=C(Nc1ccc2c(c1)[C@@H]1C[C@H](CC(=O)N3CCc4ccccc4C3)O[C@H](CO)[C@@H]1O2)C1CCC1
    -4 | -6 | 1.6
> CC=Cc1ccc2n(c1=O)C[C@@H]1[C@@H](CO)[C@H](C(=O)NC3CCCCC3)N(C(=O)C3CC3)[C@H]21 (mixture of isomers)
    -2 | -4 | 0.5
> CO[C@H]1CN(C)C(=O)c2ccc(NC(=O)C3CC3)cc2OC[C@H](C)N(C(C)=O)C[C@@H]1C
    4 | 4 | -1.1
> Cc1ccc(-c2ccc([C@H]3[C@@H](CO)N4C(=O)CN(C(=O)Nc5cccc(F)c5)C[C@@H]34)cc2)cc1
    -8 | -51 | 23
> COc1cccc(NC(=O)N[C@H]2C=C[C@@H](CC(=O)NCc3ccncn3)O[C@@H]2CO)c1
    0 | 1 | -0.7
> COc1cccc(C(=O)Nc2ccc3c(c2)OC[C@H](C)N(C)C[C@@H](C)[C@@H](OC)CN(C)C3=O)c1
    -1 | 2 | -1.1
> CC(=O)O[C@@H](Cc1ccc(O)cc1)C(=O)CC(C)C
    0 | -4 | 9.5
> O=C(C[C@@H]1C=C[C@@H](NC(=O)c2ccc(F)cc2)[C@H](CO)O1)NCCc1ccccc1
    -1 | 7 | -2.9
> Oc1ccccc1C=NC(N=Cc1ccccc1O)c1ccccc1O (stereo unspecified)
    -5 | -8 | -2.4
> COC(=O)C1=C(C(=O)OC)C(C(=O)OC)N2C=CC=CC2=C1C(=O)OC (stereo unspecified)
    5 | 5 | -0.8
> O=C1CNC[C@@H]2[C@@H](c3ccc(C#Cc4cccnc4)cc3)[C@@H](CO)N12
    1 | 9 | -3.6

# A run of entries from the list above, as a working copy:
# Every second line gives: rRNA inh HTS | rRNA inh HTS OD600 | rRNA inh HTS RFP
> CC=Cc1ccc2n(c1=O)C[C@@H]1[C@@H](CO)[C@H](C(=O)NC3CCCCC3)N(C(=O)C3CC3)[C@H]21 (mixture of isomers)
    -2 | -4 | 0.5
> CO[C@H]1CN(C)C(=O)c2ccc(NC(=O)C3CC3)cc2OC[C@H](C)N(C(C)=O)C[C@@H]1C
    4 | 4 | -1.1
> Cc1ccc(-c2ccc([C@H]3[C@@H](CO)N4C(=O)CN(C(=O)Nc5cccc(F)c5)C[C@@H]34)cc2)cc1
    -8 | -51 | 23
> COc1cccc(NC(=O)N[C@H]2C=C[C@@H](CC(=O)NCc3ccncn3)O[C@@H]2CO)c1
    0 | 1 | -0.7
> COc1cccc(C(=O)Nc2ccc3c(c2)OC[C@H](C)N(C)C[C@@H](C)[C@@H](OC)CN(C)C3=O)c1
    -1 | 2 | -1.1
> CC(=O)O[C@@H](Cc1ccc(O)cc1)C(=O)CC(C)C
    0 | -4 | 9.5
> O=C(C[C@@H]1C=C[C@@H](NC(=O)c2ccc(F)cc2)[C@H](CO)O1)NCCc1ccccc1
    -1 | 7 | -2.9
> Oc1ccccc1C=NC(N=Cc1ccccc1O)c1ccccc1O (stereo unspecified)
    -5 | -8 | -2.4
> COC(=O)C1=C(C(=O)OC)C(C(=O)OC)N2C=CC=CC2=C1C(=O)OC (stereo unspecified)
    5 | 5 | -0.8
> O=C1CNC[C@@H]2[C@@H](c3ccc(C#Cc4cccnc4)cc3)[C@@H](CO)N12
    1 | 9 | -3.6

# Going on with the list.
# Every second line gives: rRNA inh HTS | rRNA inh HTS OD600 | rRNA inh HTS RFP
> C[C@@H]1CCCCO[C@@H](CN(C)C(=O)Nc2ccc(F)cc2)[C@H](C)CN([C@@H](C)CO)C(=O)c2cc(NC(=O)Cc3ccccc3)ccc2O1
    2 | -15 | -0.7
> CCN1[C@@H]2c3ccc(-c4ccccc4)c(=O)n3C[C@@H]2[C@@H](CO)[C@@H]1C(=O)NCCc1cn(C)cn1
    2 | 3 | 0.3
> O=C(N[C@@H]1CC[C@H](CCn2cc(-c3ccccn3)nn2)O[C@@H]1CO)c1ccccc1
    -2 | -1 | -1.3
> Cc1cccc(S(=O)(=O)N2C[C@@H](O)COC[C@@H]3O[C@@H](CC(=O)N4CCN(C)CC4)CC[C@H]32)c1
    1 | 10 | 0.6
> CCOC(=O)[C@]12CCC=C1N(Cc1cccc3ccccc13)C(=O)[C@H](CC(=O)NCCC(C)C)C2
    -1 | -4 | 6.7
> C[C@@H]1CN([C@@H](C)CO)C(=O)c2cc(NS(=O)(=O)c3ccc(F)cc3)ccc2O[C@@H]1CN(C)C(=O)Nc1cccc2ccccc12
    -2 | -7 | -0.8
> CNc1ncnc2c1ncn2[C@H]1CN(Cc2ccco2)C[C@@H](CO)O1
    11 | 11 | 3.6
> COc1ccc(C(=O)N2CCCCC2c2cc(C(=O)Nc3ccccc3)no2)cc1 (stereo unspecified)
    -1 | -19 | 7.8
> O=C(C[C@H]1C=C[C@H](NC(=O)Nc2ccc(F)cc2)[C@@H](CO)O1)NCCN1CCCC1
    3 | 2 | 6.3
> CO[C@H]1CN(C)C(=O)c2ccc(NC(=O)C3CC3)cc2OC[C@@H](C)N(C)C[C@H]1C
    2 | 1 | -0.2
> C[C@@H]1CN([C@@H](C)CO)C(=O)c2cc(C#CC3(O)CCCC3)cnc2O[C@H]1CN(C)S(=O)(=O)c1ccccc1
    -3 | -3 | -2.1
> COC(=O)C1=C(C)N(Cc2cccc(C(F)(F)F)c2)C(=NCc2cccc(C(F)(F)F)c2)NC1c1ccccc1C(F)(F)F (stereo unspecified)
    12 | 14 | 4.1
> O=C1NC[C@@H](CCCCN2C[C@H](Cc3ccc(O)cc3)N(Cc3ccccc3)C(=O)C2=O)N(CC2CCCCC2)C1=O
    -8 | -10 | 7.6
> CC(=O)N1[C@H](CNC(=O)C2CC2)[C@@H](c2ccc(-c3cccc(F)c3)cc2)[C@@H]1CO
    -8 | -7 | 3.3
> C[C@@H]1CCCCO[C@@H](CN(C)C)[C@H](C)CN([C@H](C)CO)C(=O)c2cc(NS(=O)(=O)c3ccccc3)ccc2O1
    3 | 8 | 1.4
> COc1cccc(S(=O)(=O)Nc2ccc3c(c2)C(=O)N(C)C[C@@H](OC)[C@@H](C)CN(C(=O)Cc2cccnc2)[C@H](C)CO3)c1
    2 | 1 | -1.8
> COc1cccc(CN2[C@H](CO)[C@H](c3ccccc3)C23CN(C(=O)C2CCCC2)C3)c1
    -7 | -28 | 8.7
> C[C@@H](NC(=O)C[C@H]1C=C[C@H](NC(=O)CN2CCOCC2)[C@@H](CO)O1)c1ccccc1
    2 | 5 | 0.4
> CCNC(=O)C1CCCN(C(=O)c2ccc(OC)cc2OC)CC1 (stereo unspecified)
    10 | 20 | -1.3
> C/C=C/c1ccc2c(c1)O[C@H](CN(C)Cc1ccccc1F)[C@@H](C)CN([C@H](C)CO)S2(=O)=O
    -4 | -17 | 2.1
> CN(C)CC(=O)N1[C@@H]2c3cccc(=O)n3C[C@H]1[C@H](CO)[C@H]2C(=O)NCc1ccccc1
    1 | 1 | -4.3
> CCCCNC(=O)c1nc(-c2ccc(C(F)(F)F)cc2)oc1-c1ccccc1
    10 | 3 | -0.1
> CC(=O)N(C)C[C@H]1OCc2ccccc2-c2c(n(C)c3ccccc23)C(=O)N([C@H](C)CO)C[C@@H]1C
    0 | 4 | -0.6
> O=C(C1CC1)N1C[C@@H]2N[C@H](C1)C2c1ccc(/C=C/c2ccccc2)cc1 (stereo partly specified)
    -4&-18 | 2&-44 | 1.3&-6.3
